# Screening results from PubChem.
# miR-21 reporter: miR-21 reporter, rising signal. HeLa miR-21 FLuc reporter, luciferase, 48 h. Potency, µM (highest dose often 38.3 µM), without a hit: at the highest dose reporter change, positive = more light. 340,000 tested, under 10 active; active = well fitted rising curve with a large enough effect; inconclusive = small, poorly fitted or top-dose-only effect; inactive = no such curve, though single readings can be large or run the other way;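 note: % of control where 0% means no effect; miR-21 action dims this reporter so a rising signal means less miR-21 action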
#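 Luminescence from a firefly luciferase reporter carrying a miR-21 binding site downstream, stably expressed under a CMV promoter in HeLa cells that make miR-21 endogenously, reports miRNA modulation after 48 h compound exposure up to approximately 40uM final.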
# An asterisk follows results filed as active; ? = inconclusive; [ ] = remark or other dose. This is a subset; the hit share may differ from the screen's.
SMILES,miR-21 reporter
COc1cccc2sc(N(Cc3cccnc3)C(=O)c3ccc4c(c3)OCCO4)nc12,1%
COC(=O)c1cc2oc(C)cc2n1Cc1ccc(Br)cc1F,1%
O=C(CSC1=Nc2ccccc2C2=NC(CCC(=O)NC3CCCCC3)C(=O)N12)Nc1cccc(C(F)(F)F)c1 (stereo unspecified),0%
COc1ccc2cc3cc(C(=O)N4CCN(c5ccccc5F)CC4)oc3nc2c1,1%
Cc1cc(C)cc(NC(=O)C2CCN(c3nnc(-n4c(C)ccc4C)s3)CC2)c1,0%
CN(C)CCN(Cc1ccccc1)S(=O)(=O)c1ccc(-c2cc(C(F)(F)F)on2)s1,0%
Cc1ccc(Nc2c(-c3cccs3)nc3nc(C)cc(C)n23)cc1,-17%
COc1cccc(CNC(=O)C(=O)NCC(c2cccs2)S(=O)(=O)c2cccs2)c1 (stereo unspecified),2%
Cc1ccc(NC(=O)CCS(=O)(=O)c2cc3c4c(c2)CCN4C(=O)CC3)c(C)c1,0%
COc1cccc2c1Oc1ncccc1N(c1ccc(C(=O)NCc3cccc(C)c3)s1)C2,10%
Cn1cc(C(=O)NCCc2ccc(Cl)cc2)c(=O)c2cc(S(=O)(=O)N3CCOCC3)ccc21,-3%
COc1cccc(NC(=O)CSC2=Nc3ccccc3C3=NC(CC(=O)NCc4cccs4)C(=O)N23)c1 (stereo unspecified),5%
Cc1ccc(Cl)cc1N1CCN(C(=O)CN2C(=O)COc3ccc(S(=O)(=O)N4CCCCCC4)cc32)CC1,-8%
COc1ccc(NC(=O)Cn2c(=O)nc(-c3ccccc3)c3ccccc32)cc1OC,3%
COc1cc(OC)c(NC(=O)COc2ccccc2-c2nnc(-c3ccccc3)o2)cc1Cl,2%
Cc1ccc(NC(=O)/C(C#N)=C\c2ccc(Cl)cc2Cl)cc1C,5%
CCOCCCNC(=O)c1ccc(-c2nc(CS(=O)(=O)c3ccccc3)c(C)o2)cc1,0%
Cc1cc(C)c(OCC(=O)N(Cc2cccc(F)c2)Cc2ccco2)c(C)c1,?
CCOc1ccc(NC(=O)c2noc3c2CSc2ccccc2-3)cc1,-1%
COc1ccccc1CNC(=O)c1ccc(-c2nc(CN3CCc4ccccc43)c(C)o2)cc1,?
O=C1c2oc3ccccc3c(=O)c2C(c2cccc(Br)c2)N1c1ccccn1 (stereo unspecified),-1%
Cc1ccc(OCCSc2nc(-c3ccccc3C)nc3cc(=O)[nH]n23)cc1Cl,-25%
O=C(c1ccccc1Cl)N1CCCC(c2nc3c(nnn3Cc3ccc(F)cc3F)c(=O)[nH]2)C1 (stereo unspecified),0%
O=C(CCC(=O)OCC(=O)c1ccc(Cl)cc1)Nc1ccc(Oc2ccccc2)cc1,-10%
CC(C)CCNC(=O)Nc1cc(C(=O)NCc2cccc(F)c2)ccc1N1CCCC1,23%

# Later entries
SMILES,miR-21 reporter
COc1ccc(-n2c(/C=C/c3cc(OC)c(OC)cc3OC)nc3cc4ccccc4cc3c2=O)cc1Cl,-6%
CC1=C(c2ccc(C)cc2)S(=O)(=O)NC1=NCCCN1CCN(c2ccc(F)cc2)CC1,0%
CCOc1ccc(NC(=O)c2oc3ccccc3c2NC(=O)c2ccc(OC)cc2OC)cc1,-7%
O=C(CCn1c(=O)c2sccc2n(CC(=O)Nc2ccccc2)c1=O)NCc1ccccc1Cl,-20%
O=C(COc1ccc([N+](=O)[O-])cc1)NCC1(N2CCOCC2)CCCCC1,-3%
CCSc1ccc(C(=O)Nc2ccc(-c3nc4ccc(C)cc4s3)cc2)cc1,-5%
COc1ccc(CNS(=O)(=O)c2cc(C(=O)Nc3cc(Cl)cc(Cl)c3)ccc2F)cc1,17%
COc1ccc(-c2cn3c(n2)sc2cc(C(=O)Nc4ccccc4F)ccc23)cc1,-1%
Cc1ccccc1C(=O)Nc1cccc(OCc2cc(=O)n3c(C)csc3n2)c1,-18%
COc1ccc2oc(=O)c(C(=O)NCCc3c(C)[nH]c4ccc(Br)cc34)cc2c1,-3%
COc1ccc(Cl)cc1NC(=O)C(C)n1nnc2sc3c(c2c1=O)CCCC3 (stereo unspecified),4%
CC(=O)c1ccc(NC(=O)c2ccc3c(c2)N(Cc2cccc(Cl)c2)C(=O)c2ccccc2S3=O)cc1 (stereo unspecified),8%
CCN(CC)C(=O)C1CCN(C(=O)c2cnn(-c3ccccc3)c2-n2cccc2)CC1,0%
CCOc1cccc(C(=O)N(Cc2ccc(CC)cc2)C2CCS(=O)(=O)C2)c1 (stereo unspecified),18%
CC(=O)N1c2ccc(S(=O)(=O)NCC3CCC(C(=O)Nc4ccccc4C)CC3)cc2CC1C (stereo unspecified),14%
O=C(NCCc1ccc(F)cc1)C(=O)NCC(c1cccs1)S(=O)(=O)c1ccccc1 (stereo unspecified),-6%
CCc1nnc2c3ccccc3nc(Nc3cc(C)cc(C)c3)n12,-2%
COc1ccccc1C(=O)Nc1ccc(-c2nc3cc(C)cc(C)c3o2)cc1,-5%
Cc1cc(Br)cc2c1N(Cc1ccccc1OC(C)C)C(=O)C2=O,?
O=C(c1cccc(Cl)c1)N(Cc1ccco1)Cc1ccccc1Cl,8%
Cc1cccc(-n2c3nc(=O)[nH]c(=O)c-3cc3ccc(Cl)cc32)c1C,2%
Cc1oc2cc3oc(=O)c(CC(=O)N4CCCCC4)c(C)c3cc2c1C,-2%
Cc1ccccc1CS(=O)(=O)Cc1ccc(C(=O)NCc2ccc(F)cc2)o1,16%
CCCC(=O)C1=C(c2cccc(OC)c2)N(C(=O)CCC)n2c(C)nnc2S1,21%
CCc1nnc(SCc2ccc(F)cc2Cl)c2cc3sccc3n12,1%

# Next part
SMILES,miR-21 reporter
Cc1ccccc1NC(=O)c1ccc2nc(Cc3ccccc3)oc2c1,0%
O=C(COc1ccc(Cl)cc1)Nc1sc2c(c1C(=O)Nc1cccc(Cl)c1)CCCC2,-2%
O=C(OCc1cc(=O)n2nc(-c3cccs3)sc2n1)c1ccccc1Cl,-6%
CSc1cccc(NC(=O)Cn2nnc(C(=O)NCCc3ccccc3)c2N)c1,-15%
O=C(CSc1nc2ccsc2c(=O)n1Cc1ccccc1Cl)NCc1ccc(F)cc1,5%
COc1cccc(N2CCN(c3ncnc4c3c(-c3ccccc3)cn4-c3cccc(C(F)(F)F)c3)CC2)c1,-4%
Nc1c(C(=O)Nc2cccc(F)c2)c2ccccn2c1C(=O)c1ccccc1,-3%
CCCS(=O)(=O)NCCc1csc2nc(-c3ccc(C)cc3)nn12,-1%
Cc1cc(-c2ccc(S(=O)(=O)Nc3cccc(C)c3C)s2)on1,27%
O=C(Cn1cc(C(=O)c2ccco2)c2ccccc21)Nc1ccccc1C(F)(F)F,-4%
CCC(C)NC(=O)CSc1nc2cc3c(cc2c(=O)n1Cc1ccc(C(=O)NCCc2ccc(OC)c(OC)c2)cc1)OCO3 (stereo unspecified),10%
Cc1cc2oc(C(=O)Nc3ccc(S(=O)(=O)Nc4ncccn4)cc3)cc(=O)c2cc1C,2%
CCN(CC)CCCNC(=O)c1cc(-c2ccc(OC)c(OC)c2)on1,-8%
O=C(c1cccn1-c1nnc(N2CCCCC2)s1)N1CCN(c2ccc(Cl)cc2)CC1,-5%
COc1ccc(NCc2cc3ccc(OC)cc3n(CC(=O)Nc3ccc(C)c(C)c3)c2=O)cc1,-6%
FC(F)(F)c1ccc(C2=Nc3ccccc3NC(c3cccs3)=N2)cc1,8%
COC(=O)c1cc2sccc2n1Cc1ccc(F)cc1Cl,-17%
CCOC(=O)c1cc(-c2ccc(C)cc2)n(CCC(=O)Nc2cc(Cl)ccc2C)c1C,-4%
CCCCOC(=O)c1ccc(NC2=NS(=O)(=O)c3ccccc32)cc1,-8%
Cc1ccc(OCC(=O)Nc2nc(-c3ccc(Br)cc3)ns2)cc1C,-5%
COc1ccc(-c2c3c(=O)n(C)c(=O)n(C)c3c3n2-c2ccccc2NC3c2ccc(OC)cc2)cc1 (stereo unspecified),3%
CCN1C(C(=O)c2ccccc2)=C(NC(=O)c2ccc(Cl)cc2)c2ccccc2S1(=O)=O,1%
COc1cccc(NC(=O)CSc2cc(=O)n(C)c3ccc(Cl)cc23)c1,-3%
CCSc1ncc(Cl)c(C(=O)Nc2nc3ccc(OC)cc3s2)n1,-1%
CC(=O)Nc1ccc(S(=O)(=O)NCC2CCC(C(=O)NCCc3ccc(C)cc3)CC2)cc1 (stereo unspecified),3%

# Remaining list, next part.
SMILES,miR-21 reporter
CCC1CN(C(=O)Nc2ccccc2F)c2cc(C)ccc2O1 (stereo unspecified),-3%
CCCNC(=O)Cn1c(=O)cc(C)c2c(C)nn(-c3cccc(F)c3)c21,-3%
CCN1CCN(C(=O)Cn2c(-c3cccs3)cc3ccccc32)CC1,-9%
COc1ccc(N2CCN(C(=O)Cn3cnc4sc(C)c(S(=O)(=O)N5CCCCC5)c4c3=O)CC2)cc1,12%
Cc1ccc(Cl)cc1NC(=O)Cn1c(=O)oc2cc(S(=O)(=O)N3CCCC3)ccc21,-5%
CCCOC(=O)c1c(NC(=O)C2c3ccccc3Oc3ccccc32)sc2c1CCC(C)C2 (stereo unspecified),-4%
COc1ccc(OCC(=O)Nc2cccc(-c3nc4ccccc4s3)c2C)cc1,-4%
CCOc1ccccc1NC(=O)Cc1csc(COc2cccc(C)c2)n1,9%
COc1ccc(-c2onc(C)c2C)cc1S(=O)(=O)NCCc1ccccc1,5%
CCc1ccccc1NC(=O)CSc1nnc(CC)c(CC)n1,-7%
CCCCn1c(=NC(=O)c2c(-c3c(F)cccc3Cl)noc2C)c(C(=O)OCC)cc2c(=O)n3ccccc3nc21,1%
Cc1ccc(CN(C(=O)c2ccccc2[N+](=O)[O-])c2ccccn2)cc1,-2%
CNC(=O)c1ccc(Nc2nnc(-c3ccc(C)c(S(=O)(=O)N(C)C)c3)c3ccccc23)cc1,-10%
CCN(C(=O)c1cc2cc3ccc(OC)cc3nc2o1)c1cccc(C)c1,10%
Cc1ccc(N2C(=O)CSC23C(=O)N(CC(=O)Nc2ccc(C(C)C)cc2)c2ccccc23)cc1C (stereo unspecified),7%
COc1ccccc1N1CCN(C(=O)Cn2ncc3c(=O)oc4ccc(C)cc4c32)CC1,-1%
CC(=O)c1ccc(S(=O)(=O)N2CCn3cccc3C2c2ccc(F)c(F)c2)cc1 (stereo unspecified),12%
O=C(NCCCN1CCN(c2ccccc2)CC1)c1ccc2nc(CCc3ccccc3)oc2c1,16%
CC(C)CCn1nnc2sc(-c3ccccc3)cc2c1=O,-36%
CCCC[C@]12Cc3ccccc3[C@H](O1)C1=C(O2)C(=O)c2ccccc2C1=O,-1%[7.66 µM]
COC(=O)c1ccc(NC(=O)C(=O)NCCc2csc(-c3ccc(C(F)(F)F)cc3)n2)cc1,-1%
CCOC(=O)C1=C(CNCc2ccccc2)NC(=O)NC1c1ccc(C)cc1 (stereo unspecified),-10%
COc1ccc(C(=O)N2CCCCC2CCN2CCCCC2)cc1 (stereo unspecified),9%
CC1CCN(c2nc3ccc(C(=O)NCCc4ccc(S(N)(=O)=O)cc4)cc3s2)CC1,-52%
Cc1nc(CC(=O)Nc2cc(Cl)ccc2C)cs1,-14%

# Later entries:
SMILES,miR-21 reporter
O=C(Cn1c(=O)n(-c2ccccc2Cl)c(=O)c2sc3ccccc3c21)NC1CCCC1,-4%
CC(C)(C)c1ccc(C(=O)NCC(c2ccco2)S(=O)(=O)c2ccccc2)cc1 (stereo unspecified),1%
COc1ccc(NC(=O)CSc2nc(-c3ccc(OC)cc3)cc(=O)[nH]2)cc1,-7%
CCCCN(CC)CCNC(=O)CCn1cnc2onc(-c3ccc(F)cc3)c2c1=O,-15%
CCCCN(CC)CCNC(=O)c1cc2c(=O)oc3ccc(C)cc3c2s1,-1%
O=C(Cn1c(=O)n(Cc2ccccc2)c(=O)c2oc3ccccc3c21)Nc1ccc(Cl)cc1,-5%
CC(C)(C)OC(=O)N1CCC(c2c(C(=O)NCc3ccc4c(c3)OCO4)cnn2-c2ccc(F)cc2F)CC1,24%
Cc1ccc2ccc3cc(C(=O)N4CCN(c5ccccc5)CC4)nc3c2[nH]1,?
CCCOc1ccc(-c2nc(SC)[nH]c(=O)c2C#N)cc1OC,-15%
COC(=O)c1cc2oc3ccccc3c2n1Cc1ccc(Cl)cc1,-20%
CCN(CC)S(=O)(=O)c1ccc(C(=O)Nc2nc3ccc(Cl)cc3s2)cc1,-4%
COc1ccc(S(=O)(=O)NCC(c2cccs2)S(=O)(=O)c2ccccc2)cc1OC (stereo unspecified),-1%
CN(C1CCCCC1)S(=O)(=O)c1ccc2c(c1)c(=O)c(C(=O)N1CCN(c3ccccc3)CC1)cn2C,-3%
